GLA inh pH 4.5 = blocks human alpha-galactosidase A at pH 4.5 | 230,000 tested, under 10 active | P06280 | activity change, negative = inhibition, % at 105 µM | purified enzyme, 4-MU-alpha-Gal fluorescence, pH 4.5; inconclusive = small, poorly fitted or top-dose-only inhibition, or a rising curve; inactive = flat fitted curve, though single readings scatter; no compound was filed as active;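 also: 0% = full activity with enzyme and -100% = basal without enzyme; dose as in the result columns while the protocol names 77 µM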
Rango complex inh = Rango-importin beta binding inhibition | Q14974 | Rango CFP/YFP FRET sensor + importin beta, 45 min | AID 540263 | 340,000 compounds, 0.031% hits | Potency, µM (highest dose often 92.2 µM), for inactives: at the top dose inhibition of complex formation; active = rising FRET ratio curve, often small or poorly fitted; inconclusive = mostly compound fluorescence or quenching in the first reads; inactive = flat curves in all reads;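 also: potency is read from the fitted curve at half-maximal effect; 0% = DMSO wells and 100% = buffer wells lacking importin beta; nearly all actives have a fitted effect of over 15% in size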
Target sequence (Q14974 whole entry, looked up): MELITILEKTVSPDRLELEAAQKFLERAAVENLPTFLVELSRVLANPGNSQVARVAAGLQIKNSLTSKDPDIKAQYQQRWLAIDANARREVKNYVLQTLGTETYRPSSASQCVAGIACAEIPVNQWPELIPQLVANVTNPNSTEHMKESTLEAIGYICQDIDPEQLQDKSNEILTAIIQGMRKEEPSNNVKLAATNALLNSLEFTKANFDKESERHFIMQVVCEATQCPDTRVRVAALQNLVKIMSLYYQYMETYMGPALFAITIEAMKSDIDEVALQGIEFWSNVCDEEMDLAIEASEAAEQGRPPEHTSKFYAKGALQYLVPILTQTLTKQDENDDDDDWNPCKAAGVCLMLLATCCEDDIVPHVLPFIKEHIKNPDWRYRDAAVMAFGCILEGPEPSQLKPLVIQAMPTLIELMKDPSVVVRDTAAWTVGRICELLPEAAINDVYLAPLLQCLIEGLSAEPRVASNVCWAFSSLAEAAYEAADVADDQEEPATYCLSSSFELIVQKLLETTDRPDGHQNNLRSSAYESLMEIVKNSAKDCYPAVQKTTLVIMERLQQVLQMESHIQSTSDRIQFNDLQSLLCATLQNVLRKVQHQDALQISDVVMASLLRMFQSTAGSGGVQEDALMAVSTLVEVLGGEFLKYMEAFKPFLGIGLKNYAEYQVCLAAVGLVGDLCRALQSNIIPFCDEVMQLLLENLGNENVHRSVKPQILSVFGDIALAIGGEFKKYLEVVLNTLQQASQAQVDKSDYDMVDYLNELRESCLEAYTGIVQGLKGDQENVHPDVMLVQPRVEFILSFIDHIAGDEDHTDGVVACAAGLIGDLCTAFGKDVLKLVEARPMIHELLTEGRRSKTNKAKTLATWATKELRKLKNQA
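FRET biosensor Rango (snurportin 1 IBB between N-terminal EYFP and C-terminal Cerulean), 50 nM in PBS/1 mM DTT/0.02% Tween-20/0.1% BSA, preincubated 5 min RT with compound; 0.125 microM importin beta added, 45 min RT, CFP/YFP FRET ratio read.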
miR-21 FLuc = miR-21 reporter, rising signal | HeLa miR-21 FLuc reporter, luciferase, 48 h | Potency, µM (highest dose often 38.3 µM), for inactives: at the top dose reporter change, positive = more light | 340,000 tested, under 10 active; active = well fitted rising curve with a large enough effect; inconclusive = small, poorly fitted or top-dose-only effect; inactive = no such curve, though single readings can be large or run the other way;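 also: % of control where 0% means no effect; miR-21 action dims this reporter so a rising signal means less miR-21 action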
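HeLa miR-21-FLuc reporter line, endogenous miR-21; 2000 cells/well in DMEM/10% FBS; compound titration up to ~40uM final, 48 h, 37 degree Celsius; luciferase detection reagent, 15 min lysis, CCD luminescence.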
Rango dissoc inh = inhibition of RanGTP-driven Rango-importin beta dissociation; Biochemical FRET Rango-importin beta, RanGTP-induced dissociation; Potency, µM (top dose mostly 46.1 µM), for inactives: at the top dose activity change, negative = inhibition; 340,000 compounds, 0.071% hits; AID 540253; active means falling FRET ratio curve, often poorly fitted, with flat reads before Ran was added; inconclusive means other falling curves, or compound fluorescence or quenching; inactive means flat or rising ratio curve;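 also: potency is read from the fitted curve at half-maximal effect; % of control where 0% means no effect; nearly all actives have a fitted effect of over 45% in size; -100% = wells without RanGTP and RCC1; the record marks most hits as doubtful in a second field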
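Rango FRET biosensor (snurportin-1 IBB flanked by N-terminal EYFP and C-terminal CFP10) at 0.1 uM, with 0.25 uM importin beta in PBS, 1mM DTT, 0.02% Tween-20, 0.1% BSA. 0.6 uM Ran, 2mM GTP and 0.2 uM RCC1 were then added for 45 min at room temperature. Inhibition read as loss of FRET rise.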
Active calls of the source: *; u = inconclusive; x = no result given. Not all compounds are listed; count on the stated rates, not on these rows.

Screens in order – Rango dissoc inh | GLA inh pH 4.5 | Rango complex inh | miR-21 FLuc
- COC1=C(OC)[C@]23CCc4ccc(OC)c(OC)c4[C@]2(CCN3C)CC1=O
  14% | x | 2.1% | x
- c1ccc2[nH]c(CCNC3CCCCC3)nc2c1
  -10% | -17 | -2.0% | -4%
- CCc1cc2c(s1)NC(=O)CN=C2c1cccs1
  2% | 4 | 0.7% | 20%
- Cc1ccc(N(C)C(=O)Oc2cccc3cccnc23)cc1
  -9% | -1 | 3.3% | -16%
- CCC1(CCC(C)C)C(=O)NC(=S)NC1=O
  -7% | x | 10% | x
- CC(=O)c1cn(Cc2ccccc2F)c2ccccc12
  7% | x | -3.0% | 17%
- CCOC(=O)C1C2NC(=O)N(Cc3ccccc3)C1(C)Oc1c(OC)cccc12 (configuration not stated)
  22% | -5 | 4.2% | -1%
- Cc1cc(N2C(=O)C3CCCN3C2c2sccc2C)no1 (configuration not stated)
  -5% | 4 | -2.0% | -9%
- CC(=O)O[C@H]1C(=O)[C@@]2(C)C([C@H](OC(=O)c3ccccc3)[C@]3(O)C[C@H](O)C(C)=C1C3(C)C)[C@]1(OC(C)=O)CO[C@@H]1C[C@H]2O (some centres not stated)
  0% | x | -1.8% | 15%
- Fc1ccc(Cn2nnnc2CN2CCC(n3nnc4cc(C(F)(F)F)ccc43)CC2)cc1
  -6% | -15 | 1.1% | 0%
- COc1ccc(-n2c(O)c(C(C)=NCCc3c[nH]c4ccccc34)c(=O)[nH]c2=O)cc1
  4% | -2 | -3.1% | -4%
- O=C(Cc1ccccc1)NC(Cc1ccc(Cl)cc1)C(=O)O (configuration not stated)
  2% | -1 | 1.1% | 3%
- CCN1C(=O)C(=C2C=C(C)N(Cc3ccco3)C(C)=C2)C(=O)N(CC)C1=S
  u | 0 | u | 0%
- CN(C)/C=C1/C(=O)NC(=O)N(CCNc2ncc(C(F)(F)F)cc2Cl)C1=O
  4% | -4 | -0.8% | -3%
- Cc1cccc(CN2CCCN(Cc3ccc(Cl)cc3)S2(=O)=O)c1
  32% | x | 3.3% | -1%
- CN1c2ccc([N+](=O)[O-])cc2CC2(C(=O)NC(=O)N(c3ccccc3)C2=O)C1c1ccccc1 (configuration not stated)
  12% | -2 | -0.4% | -4%
- O=c1c2cc(Br)ccc2[nH]c(=S)n1-c1ccccc1
  4% | 0 | 0.9% | 0%
- O=C1NC(=O)C(=Cc2cc(Cl)ccc2OCc2ccc(C(=O)O)cc2)C(=O)N1
  7% | -2 | 0.3% | -12%
- Cc1cc(=O)oc2cc(OCC(=O)N3CCC(C(=O)O)(c4ccccc4)CC3)ccc12
  0% | x | 0.3% | 1%
- COC(=O)C1=C(c2ccc(OC)c(OC)c2)C[C@@H]2CC[C@H]1N2C(=O)NCc1cc(C)oc1C(F)(F)F
  -7% | x | -4.2% | x
- CC(=O)c1cccc(OCC(=O)N2CCN(CC(=O)Nc3cccc(F)c3)CC2)c1
  4% | x | 0.0% | x
- CN(C)C=C1C(=O)N(C2CCCCC2)C(=O)N(C2CCCCC2)C1=O
  -3% | -20 | 3.2% | -4%
- CCc1c(C)c2ccc(OCC(N)=O)cc2oc1=O
  -16% | -6 | -0.6% | -32%
- CCS(=O)(=O)N1Cc2ccccc2CC1C(=O)NCC12CC3CC(CC(C3)C1)C2 (configuration not stated)
  u | -7 | -1.1% | -16%
- C1CCC2S[C@H]3CCCCC3NC2C1 (some centres not stated)
  -3% | -4 | -0.1% | 0%
- O=S(=O)(O)c1cc(O)ccc1O
  -7% | -2 | 1.2% | x
- Cc1cccc(NC(=O)N2CC3CC(C2)c2cccc(=O)n2C3)c1 (configuration not stated)
  24% | x | 1.1% | 1%
- CC(C(=O)N1CCC2(CC1)OCCO2)C1Sc2ccccc2NC1=O (configuration not stated)
  -3% | -9 | 0.6% | -6%
- Oc1c(Br)cc(-c2ccccc2)cc1Br
  -13% | x | -3.3% | x
- COCCCNC(=O)c1c(N)n(Cc2ccco2)c2nc3ccccc3nc12
  u | 20 | u | 7%
- CCC1(C)CC(CCNCc2ccc(N(C)C)cc2)(c2ccc(F)cc2)CCO1 (configuration not stated)
  0% | 0 | -3.0% | 0%
- COC(=O)C1=C(c2ccccc2OCc2ccccc2)C[C@@H]2CC[C@H]1N2C(=O)NCCN1CCOCC1
  2% | x | -0.1% | x
- O=C(NC(Cc1cnc[nH]1)C(=O)O)c1ccccc1 (configuration not stated)
  -12% | 0 | -1.1% | 6%
- O=C(c1cc(F)ccc1F)C1CCCN(Cc2ccc3nonc3c2)C1 (configuration not stated)
  3% | 4 | 4.1% | 1%
- COc1ccc(O)c(CN2CCCC(C(=O)c3sccc3C)C2)c1 (configuration not stated)
  -3% | 2 | -0.5% | -3%
- COc1cccc(C2=NOC(C(=O)N3CCC4(CC3)OCCO4)C2)c1 (configuration not stated)
  -8% | -5 | 6.1% | -33%
- COc1ccc(/C=C2\C(=N\O)C3CCN2CC3)cc1
  3% | -3 | -0.7% | -28%
- Cc1nn(Cc2ccccc2)c(C)c1C(=O)OCC(=O)Nc1ccccc1SCC#N
  0% | -3 | 6.0% | 0%
- CC1C2Cc3ccc(O)cc3[C@]1(C)CCN2CCc1ccccc1 (some centres not stated)
  -7% | x | -0.7% | x
- CCOc1cc2c(cc1OCC)-n1cccc1C(c1ccc(F)c(OC)c1)NC2 (configuration not stated)
  -4% | x | 0.0% | -10%
- O[C@@H]1CCCN2CCc3c([nH]c4ccccc34)[C@H]12
  u | x | u | x
- N#C/C(=C\c1ccc([N+](=O)[O-])cc1)c1nc(C2CC2)cs1
  -11% | -3 | u | -39%
- O=C1C2CCN(CC2)C12CC2c1ccc(C(F)(F)F)cc1 (configuration not stated)
  3% | -15 | 0.3% | -16%
- OC1(c2ccc(F)cc2)CCNC1 (configuration not stated)
  -8% | 9 | 2.1% | 0%
- Cc1cc(C)c(C(=O)N2CCC3(CC2)OCCO3)c(C)c1
  -21% | x | -0.2% | 0%

5 records picked at random from the list so far:
Screens in order – Rango dissoc inh | GLA inh pH 4.5 | Rango complex inh | miR-21 FLuc
- O=C(NC(Cc1cnc[nH]1)C(=O)O)c1ccccc1 (configuration not stated)
  -12% | 0 | -1.1% | 6%
- Cc1cc(C)c(C(=O)N2CCC3(CC2)OCCO3)c(C)c1
  -21% | x | -0.2% | 0%
- CC1C2Cc3ccc(O)cc3[C@]1(C)CCN2CCc1ccccc1 (some centres not stated)
  -7% | x | -0.7% | x
- CCC1(C)CC(CCNCc2ccc(N(C)C)cc2)(c2ccc(F)cc2)CCO1 (configuration not stated)
  0% | 0 | -3.0% | 0%
- CCOc1cc2c(cc1OCC)-n1cccc1C(c1ccc(F)c(OC)c1)NC2 (configuration not stated)
  -4% | x | 0.0% | -10%

The list continues.
Screens in order – Rango dissoc inh | GLA inh pH 4.5 | Rango complex inh | miR-21 FLuc
- CN(C)CC1CSCCC1(O)c1ccc(Cl)cc1 (configuration not stated)
  -14% | -3 | 6.2% | -4%
- C/C(=N\N1CCCCC1c1cccnc1)c1c(O)n(C2CCCCC2)c(=S)[nH]c1=O (configuration not stated)
  -5% | -5 | u | -7%
- CCOc1cc(C=C2C(=O)NC(=O)NC2=O)ccc1OS(=O)(=O)c1ccccc1
  -28% | 2 | 4.0% | -5%
- COc1ccc(/C=C2/C(=O)NC(=O)N(c3ccc(C)c(C)c3)C2=O)cc1CN1C(=O)c2ccccc2C1=O
  17% | -1 | -11% | -1%
- COc1ccc(/C=C2/C(=O)NC(=O)N(c3ccccc3)C2=O)cc1CN1C(=O)c2ccccc2C1=O
  1% | -3 | -2.0% | 3%
- CCCCCCn1c(O)c(C=NCCN2CCOCC2)c(=O)[nH]c1=O
  0% | 4 | -1.2% | -2%
- CCOP(=O)(NC(C)C)Oc1ccc(SC)c(C)c1 (configuration not stated)
  -10% | x | -0.8% | x
- CC(Cc1ccccc1)NCCC(=O)NC(C)Cc1ccccc1 (configuration not stated)
  12% | x | -1.5% | -6%
- NC(=O)c1cn(C2CCCCC2)c2ccccc2c1=O
  -1% | x | -3.3% | -25%
- O=c1[nH]c(=S)n(C2CC2)c(O)c1C=NCc1ccc(F)cc1
  3% | 3 | -5.3% | -1%
- O=P(Oc1ccccc1)(Oc1ccccc1)N1CCOCC1
  -4% | x | -0.1% | x
- CCOC(=O)c1cccc([P+](=O)O)c1
  -7% | 2 | 0.3% | 2%
- COc1cc(CC2(CCc3ccncc3)C(=O)N(C)C(=O)N(C)C2=O)cc(OC)c1OC
  0% | 7 | 3.8% | -9%
- COc1ccccc1/C=C1/C(=N/O)C2CCN1CC2
  -11% | -3 | -2.4% | -2%
- CCN(CC)CCOC(=O)C(O)(c1ccccc1)c1ccccc1
  -13% | 1 | 3.6% | -11%

Filtered by structure, the compounds so far containing a cyano group (2)
Screens in order – Rango dissoc inh | GLA inh pH 4.5 | Rango complex inh | miR-21 FLuc
- Cc1nn(Cc2ccccc2)c(C)c1C(=O)OCC(=O)Nc1ccccc1SCC#N
  0% | -3 | 6.0% | 0%
- N#C/C(=C\c1ccc([N+](=O)[O-])cc1)c1nc(C2CC2)cs1
  -11% | -3 | u | -39%

Additional entries follow:
Screens in order – Rango dissoc inh | GLA inh pH 4.5 | Rango complex inh | miR-21 FLuc
- CC(C)CCNC(=O)CN1C(=O)CN=C(c2ccccc2)c2ccccc21
  15% | 1 | 5.7% | 0%
- Cc1cc(OCc2ccc([N+](=O)[O-])cc2)c2c3c(c(=O)oc2c1)CCCC3
  8% | -1 | -3.9% | 7%
- CCCCn1c(O)c(C=NCc2ccc3c(c2)OCO3)c(=O)[nH]c1=O
  4% | 1 | 0.8% | 0%
- CCCn1c(C(=O)c2ccccc2OC)nc2ccccc21
  -8% | -11 | 2.4% | -6%
- CCC(=O)c1cn(Cc2ccc(C#N)cc2)c2ccccc12
  -1% | -1 | -2.1% | 3%
- Oc1cc2c(cc1CN1CCN(c3ccccc3F)CC1)OCO2
  -6% | x | -3.5% | -8%
- CC12CCC3C(CCCC4CC(=O)CCC43C)C1CCC2O (configuration not stated)
  0% | x | 0.9% | x
- COc1cc2c(C(=O)N3CCN(C)CC3)c(C)n(C)c2cc1Br
  1% | -3 | 3.1% | -9%
- O=c1[nH]c(=O)n(Cc2ccco2)c(O)c1C=NCCCn1ccnc1
  13% | 18 | 2.9% | -5%
- Cn1cc(C(=O)NCc2ccccc2)c2ccccc21
  0% | 5 | 2.4% | -13%
- CC1CCCCN1Cc1cccnc1 (configuration not stated)
  -8% | 5 | -1.0% | -2%
- O=c1[nH]c(=O)n(C2CCCCC2)c(O)c1C=NCCCn1ccnc1
  0% | -1 | 1.9% | 2%
- COc1ccc2c(C)c(CC(=O)N3C[C@H]4C[C@@H](C3)c3cccc(=O)n3C4)c(=O)oc2c1
  2% | x | 6.6% | 2%
- Nc1ccc(CC2=NCCN2)cc1
  -8% | x | 3.0% | x
- CCOc1cccc(CNC2CN3CCC2CC3)c1 (configuration not stated)
  22% | 1 | 1.5% | 0%
- COC1CCCCC1NCCc1ccccc1 (configuration not stated)
  3% | -5 | -1.0% | 2%
- Cc1cc(OC(C)C(=O)NCC2CCC(C(=O)O)CC2)c2c3c(c(=O)oc2c1)CCC3 (configuration not stated)
  u | x | 6.9% | -2%
- CCC(=NC1CC1)c1c(O)n(-c2ccc(OC)cc2)c(=O)[nH]c1=O
  -13% | 1 | 2.7% | -4%
- CN1CCN(c2nc3ccccc3o2)CC1
  10% | 2 | 0.7% | -12%

Assay outcomes (PubChem)
